RecA splice inh: blocks M. tuberculosis RecA intein splicing. actives 0.75% (n = 290,000). cell-free RecA intein splicing, fluorescence. inhibition, %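 (about 9 µM by stock and volumes)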. P9WHJ3; in the data active = inhibition above about 30%; inconclusive = no clear call, values can overlap the other calls;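 note: 0% = vehicle wells and 100% = reference inhibitor control wells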
Target sequence (P9WHJ3 whole entry, looked up, canonical isoform): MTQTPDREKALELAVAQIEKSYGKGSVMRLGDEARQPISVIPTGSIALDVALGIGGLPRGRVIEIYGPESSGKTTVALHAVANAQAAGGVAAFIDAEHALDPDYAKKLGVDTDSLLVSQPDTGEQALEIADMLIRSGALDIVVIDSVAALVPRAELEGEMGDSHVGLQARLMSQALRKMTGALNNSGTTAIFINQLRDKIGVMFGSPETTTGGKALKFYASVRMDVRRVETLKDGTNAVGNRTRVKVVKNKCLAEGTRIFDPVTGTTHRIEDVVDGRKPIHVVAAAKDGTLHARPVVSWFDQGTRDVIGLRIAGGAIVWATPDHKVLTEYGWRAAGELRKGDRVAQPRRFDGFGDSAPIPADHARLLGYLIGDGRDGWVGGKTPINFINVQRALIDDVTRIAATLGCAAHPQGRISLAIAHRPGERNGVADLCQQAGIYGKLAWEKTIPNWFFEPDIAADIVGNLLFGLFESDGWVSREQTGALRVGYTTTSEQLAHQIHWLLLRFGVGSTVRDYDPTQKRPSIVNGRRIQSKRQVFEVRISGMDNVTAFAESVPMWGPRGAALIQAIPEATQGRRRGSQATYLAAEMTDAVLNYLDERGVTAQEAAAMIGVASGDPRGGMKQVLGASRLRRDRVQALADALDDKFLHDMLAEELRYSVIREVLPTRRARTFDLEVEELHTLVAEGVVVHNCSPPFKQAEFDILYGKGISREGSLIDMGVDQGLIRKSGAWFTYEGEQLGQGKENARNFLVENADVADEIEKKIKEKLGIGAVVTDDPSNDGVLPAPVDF
YopH PTP inh: blocks Yersinia enterocolitica YopH tyrosine phosphatase; fluorescence Ex485/Em525; inhibition, %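 (about 10 µM by stock and volumes)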; actives 0.16% (n = 140,000);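 active = inhibition of 50% or more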;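 note: controls were vehicle for no effect and minimum signal wells for full effect; inactives centre near -20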
Mtb bLac sens: beta-lactam sensitization of Mtb H37Rv | actives 0.27% (n = 330,000) | M. tuberculosis H37Rv growth with meropenem, percent inhibition; hits of this screen are not shown here | inhibition, % at 25 µM;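 active = about 74% or more and at least 40 points above the plate without the antibiotic, then above 30% in a dose series; inconclusive = first-round hits that could not be retested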;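 note: growth measured after seven days incubation then overnight dye step; 0% = bacteria only wells and 100% = bacteria with antibiotic; twin plates without the antibiotic show which effects depend on it; some results filed as inactive read as strong as hits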
Arbovirus anti: arbovirus infection inhibition | inhibition, % at 10 µM | actives 0.37% (n = 200,000) | AID 1251 | arbovirus infection cell-based antiviral screen;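 active = inhibition from about 30%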;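 note: bluetongue infection of BSR cells; cell survival read as ATP light after 72 h; 0% = infected wells without compound and 100% = uninfected wells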
Mtb growth: M. tuberculosis H37Rv growth inhibitors, H37Rv strain (AID 1626); inhibition, % at 10 µM, or IC50 in µM where a hit was titrated; M. tuberculosis H37Rv growth inhibition; higher % means a stronger effect; actives 0.95% (n = 220,000);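 active = confirmed in a dose series; inconclusive = inhibition above 80% but not taken into the dose series; inactive = below 80% or under 30% at every dose of the series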;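 note: bacteria incubated seven days before Alamar blue readout; 0% = bacteria only wells and 100% = bacteria with antibiotic wells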
Active calls of the source: *. Not all compounds are listed (hit frequency here may not be typical).

What do the screens show for `Cc1ccc(NC(=O)N2CCC(NC(=O)c3ccccc3C)CC2)cc1`?
YopH PTP inh: -19; Mtb bLac sens: -9; Arbovirus anti: 11; Mtb growth: -6%

What do the screens show for `CN1C(=O)CC2(CC(=O)N(Cc3ccccc3)C2)C1=O` (stereo not given)?
RecA splice inh: -0.7; YopH PTP inh: -26; Mtb bLac sens: -1; Arbovirus anti: 0; Mtb growth: -10%

How did CCOC(=O)COc1cc(O)c2c(=O)cc(-c3ccccc3)oc2c1 do in these assays?
RecA splice inh: -3.3; Mtb bLac sens: 99; Arbovirus anti: -1

What do the screens show for `O=C(Nc1ccccc1)c1ccc(-c2ccccc2C(F)(F)F)o1`?
YopH PTP inh: -8; Mtb bLac sens: 78; Arbovirus anti: 4; Mtb growth: -15%

Results for NC(=O)c1ccc[n+](CC(=O)c2ccc(Br)cc2)c1 ?
RecA splice inh: 0.7; Mtb bLac sens: 1; Arbovirus anti: -6; Mtb growth: 0%

How did COc1ccc(S(=O)(=O)NC(C)C(=O)NCc2cccnc2)cc1C (stereo not given) do in these assays?
RecA splice inh: -1.3; Mtb bLac sens: -9

How did Cc1onc(-c2ccccc2)c1C(=O)Nc1c(C)n(C)n(-c2ccccc2)c1=O do in these assays?
RecA splice inh: -2.3; YopH PTP inh: -40; Mtb bLac sens: -19; Arbovirus anti: 0; Mtb growth: -5%

What do the screens show for `CC(=NC1CCCCC1)C1=C(O)c2ccccc2C1=O`?
RecA splice inh: 5.1; YopH PTP inh: 3; Mtb bLac sens: 3; Mtb growth: 8%

Results for C[C@]1(C(=O)O)C=C[C@@H](Cc2ccccc2)N1C(=O)c1ccccc1 ?
RecA splice inh: 0.3; YopH PTP inh: -24; Mtb bLac sens: -12; Arbovirus anti: 2; Mtb growth: -15%

How did CC(C)N(C(=O)c1nn(C)c2c1CSc1ccccc1-2)C1CCCCC1 do in these assays?
RecA splice inh: -0.8; Mtb bLac sens: 2

Results for COC(=O)c1sc(C(C)(C)C)cc1CS(=O)(=O)c1ccccn1 ?
RecA splice inh: 0.3; Mtb bLac sens: -4; Mtb growth: 5%

Results for CC(=O)N(C)c1ccc(NCc2cc(=O)oc3cc(C)c(O)cc23)cc1 ?
RecA splice inh: -11; Mtb bLac sens: -1

What do the screens show for `Cc1ccc(CNC(=O)COC(=O)c2ccc(Cl)c(N)c2)cc1`?
RecA splice inh: 3.0; YopH PTP inh: -24; Mtb bLac sens: -4; Arbovirus anti: -5; Mtb growth: -1%

How did COc1cccc(C2CC(C(F)(F)F)n3nc(C(=O)Nc4c(C)n(C)n(-c5ccccc5)c4=O)cc3N2)c1 (stereo not given) do in these assays?
RecA splice inh: -11; Mtb bLac sens: -5; Arbovirus anti: -6; Mtb growth: 6%

How did Cc1ccnc(SCc2cc(=O)c(OC(=O)c3ccccc3)co2)n1 do in these assays?
RecA splice inh: 5.0; Mtb bLac sens: 5; Arbovirus anti: -6; Mtb growth: 4%

How did Cc1nc2ccccc2n1C(=O)N1CCOCC1 do in these assays?
RecA splice inh: -1.2; YopH PTP inh: -12; Mtb bLac sens: -4; Arbovirus anti: 1

How did COc1cc(NC(=O)CN2CCN(C(=O)C3CCCO3)CC2)c(OC)cc1Cl (stereo not given) do in these assays?
RecA splice inh: 2.2; Mtb bLac sens: -6

What do the screens show for `c1cc2c(cc1Oc1nc(N3CCOCC3)nc(N3CCOCC3)n1)OCO2`?
RecA splice inh: 2.4; YopH PTP inh: -27; Mtb bLac sens: -8; Arbovirus anti: -1; Mtb growth: 3%

How did CN1CCN(C(=O)c2ccc3c(c2)N(C)C(=O)/C(=C/c2cccc(Cl)c2)S3)CC1 do in these assays?
RecA splice inh: 2.1; Mtb bLac sens: 91

How did CC1CC(=O)N(c2ccc(C(C)C)cc2)C(=O)C1 do in these assays?
RecA splice inh: -0.8; Mtb bLac sens: -8

Results for O=C(Nc1ccnn1C1CCN(C(=O)c2c(F)cccc2F)CC1)C1CC1 ?
RecA splice inh: -1.1; Mtb bLac sens: -1

What do the screens show for `O=[N+]([O-])c1ccccc1/C=N/Nc1nnc(-c2ccccc2)c(-c2ccccc2)n1`?
RecA splice inh: -1.6; YopH PTP inh: -19; Mtb bLac sens: inconclusive; Arbovirus anti: -24; Mtb growth: 2%

How did CN1c2ccccc2C(=O)C(=C2SCCCS2)S1(=O)=O do in these assays?
RecA splice inh: 0.0; Mtb bLac sens: -1; Mtb growth: 4%

What do the screens show for `Cc1ccccc1N/C(SCc1cccc(Br)c1)=C(/C#N)C(N)=O`?
RecA splice inh: -0.6; YopH PTP inh: -16; Mtb bLac sens: 17; Arbovirus anti: 0; Mtb growth: 11%

How did COc1ccccc1-c1nnc(SC(C)C(=O)Nc2ccc(C(N)=O)cc2)o1 (stereo not given) do in these assays?
RecA splice inh: -2.8; Mtb bLac sens: -2

Results for Cc1ccc(S(=O)(=O)/N=C(\Nc2cc(C)on2)c2ccc(Cl)cc2)cc1 ?
RecA splice inh: 0.5; YopH PTP inh: -23; Mtb bLac sens: 4; Arbovirus anti: -2; Mtb growth: -5%

Results for CCC1CCCCN1C(=O)CN1C(=O)CSC1=O (stereo not given) ?
RecA splice inh: -2.3; YopH PTP inh: -35; Mtb bLac sens: 3; Arbovirus anti: -9; Mtb growth: -11%

What do the screens show for `Cc1nc2cc(S(=O)(=O)N(C)C)ccc2n1-c1ccccc1`?
RecA splice inh: 2.5; YopH PTP inh: -35; Mtb bLac sens: -3; Arbovirus anti: -10; Mtb growth: 1%

What do the screens show for `C(=N\N=C\c1cccnc1)/c1cccnc1`?
RecA splice inh: 0.0; YopH PTP inh: -20; Mtb bLac sens: -2; Arbovirus anti: -5; Mtb growth: 3%

How did CN1CCN(CC(=O)C23CC4CC(CC(C4)C2)C3)CC1 do in these assays?
RecA splice inh: 0.2; YopH PTP inh: -44; Mtb bLac sens: -2; Arbovirus anti: 3; Mtb growth: -9%

The closing 3 records of the section above are carried over, then new ones follow:
What do the screens show for `Cc1nc2cc(S(=O)(=O)N(C)C)ccc2n1-c1ccccc1`?
RecA splice inh: 2.5; YopH PTP inh: -35; Mtb bLac sens: -3; Arbovirus anti: -10; Mtb growth: 1%

What do the screens show for `C(=N\N=C\c1cccnc1)/c1cccnc1`?
RecA splice inh: 0.0; YopH PTP inh: -20; Mtb bLac sens: -2; Arbovirus anti: -5; Mtb growth: 3%

How did CN1CCN(CC(=O)C23CC4CC(CC(C4)C2)C3)CC1 do in these assays?
RecA splice inh: 0.2; YopH PTP inh: -44; Mtb bLac sens: -2; Arbovirus anti: 3; Mtb growth: -9%

What do the screens show for `CN(CC(=O)Nc1ccc(N2CCOCC2)cc1)C(=O)C12CC3CC(CC(C3)C1)C2`?
RecA splice inh: -3.4; Mtb bLac sens: -5

Results for CCc1ccc(/C=N/NC(=O)c2cc(C)on2)s1 ?
RecA splice inh: 6.8; YopH PTP inh: -24; Mtb bLac sens: 5; Arbovirus anti: -15; Mtb growth: 5%

How did Cc1ccc(NC(=O)c2nc[nH]c2C(=O)N[C@@H](C)C(=O)OC(C)(C)C)cc1 do in these assays?
RecA splice inh: -0.4; Mtb bLac sens: 99; Mtb growth: inconclusive

Results for CCOc1cc(/C=N/NC(=O)c2ccncc2)ccc1OC(=O)c1ccccc1 ?
RecA splice inh: 3.3; Mtb bLac sens: 98

How did CCN(Cc1nc(-c2ccccc2)no1)C(=O)COc1cccc(OC)c1 do in these assays?
RecA splice inh: 4.2; Mtb bLac sens: 0

Results for COc1ccc(CCn2c(=N)c(C(=O)NCC3CCCO3)cc3c(=O)n4ccccc4nc32)cc1OC (stereo not given) ?
RecA splice inh: 0.8; Mtb bLac sens: -3

What do the screens show for `Cc1cc(C)nc(SCNC(=O)c2ccc(F)cc2)n1`?
RecA splice inh: -1.9; YopH PTP inh: -27; Mtb bLac sens: -5; Arbovirus anti: 4; Mtb growth: -5%

How did CCOc1ccc(/C=N/OCC(=O)NCc2ccc3c(c2)OCO3)cc1OC do in these assays?
RecA splice inh: -1.3; YopH PTP inh: -16; Mtb bLac sens: -11; Arbovirus anti: 3; Mtb growth: 7%

Results for O=C(Nc1ccc(CN2CCOCC2)cc1)c1cccc(-c2cc3ccccc3oc2=O)c1 ?
RecA splice inh: 1.6; Mtb bLac sens: 51; Arbovirus anti: -18; Mtb growth: -3%

What do the screens show for `COc1cc(-c2c(-c3ccc4c(c3)OCO4)noc2-c2ccsc2)ccc1F`?
RecA splice inh: -0.6; Mtb bLac sens: 5

How did CCOc1cc(/C=C2\N=C(SCC)SC2=O)cc([N+](=O)[O-])c1OC(C)=O do in these assays?
RecA splice inh: 0.4; YopH PTP inh: -42; Mtb bLac sens: 56; Arbovirus anti: 11; Mtb growth: 17%

What do the screens show for `COc1ccc2cc(C#N)c(SCC(=O)NNC(=O)Cc3ccccc3)nc2c1`?
RecA splice inh: -1.4; YopH PTP inh: -16; Mtb bLac sens: -1; Arbovirus anti: -15; Mtb growth: -1%

What do the screens show for `COc1cccc(CNC(=O)c2ccc(C)c(NC3=NC4CS(=O)(=O)CC4S3)c2)c1` (stereo not given)?
RecA splice inh: -1.9; Mtb bLac sens: 6

Results for Cc1[nH]n(C)c(=O)c1C(=O)c1c(-c2ccccc2Cl)noc1C ?
RecA splice inh: 74*; Mtb bLac sens: 1; Mtb growth: 1%

Results for COc1nc(-c2ccncc2)nc2ccccc12 ?
RecA splice inh: 1.7; YopH PTP inh: 2; Mtb bLac sens: 34; Arbovirus anti: 15; Mtb growth: 12%

How did Cc1cccc(C)c1NC(=O)C(Cl)=C(Cl)Cl do in these assays?
RecA splice inh: 17; Mtb bLac sens: 66; Arbovirus anti: 4; Mtb growth: 1%

Results for O=C(O)C(c1ccccc1)c1ccccc1 ?
Mtb bLac sens: -8; Mtb growth: -19%

How did CCC(C)NC(=O)CCS(=O)(=O)c1ccc(Br)s1 (stereo not given) do in these assays?
RecA splice inh: 0.7; YopH PTP inh: -49; Mtb bLac sens: -1; Arbovirus anti: 0

Results for CCC1=NN2C(=N)/C(=C/c3c(C)nn(-c4ccccc4)c3Cl)C(=O)N=C2S1 ?
RecA splice inh: 2.1; YopH PTP inh: -29; Mtb bLac sens: -3; Arbovirus anti: 14; Mtb growth: 4%

How did Cc1ccc(OCc2ccc(-c3ccccc3)cc2)c([N+](=O)[O-])n1 do in these assays?
RecA splice inh: 1.9; Mtb bLac sens: -2

What do the screens show for `COC(=O)CNC(=O)c1c(-c2ccccc2Cl)noc1C`?
RecA splice inh: -0.6; YopH PTP inh: -49; Mtb bLac sens: 9; Arbovirus anti: 2; Mtb growth: -9%

How did Cc1ccccc1OCC(=O)Nc1ccc(C(=O)Nc2ccccc2C(=O)O)cc1 do in these assays?
RecA splice inh: 0.7; Mtb bLac sens: 19

What do the screens show for `CCn1c(SCC(N)=O)nnc1-c1cc2c(C)nn(-c3ccccc3)c2s1`?
RecA splice inh: 1.2; YopH PTP inh: -17; Mtb bLac sens: 66; Arbovirus anti: -6; Mtb growth: 73%

Results for CCCC(=O)n1nc(-c2ccc(OC)cc2)nc1N ?
RecA splice inh: -1.4; YopH PTP inh: -19; Mtb bLac sens: -9; Arbovirus anti: 0; Mtb growth: -7%

Results for CCc1nnc2n1N=C(c1ccc(OC)cc1)CS2 ?
RecA splice inh: 3.8; YopH PTP inh: -13; Mtb bLac sens: -4; Arbovirus anti: -19; Mtb growth: 5%

What do the screens show for `Cc1ccc(-n2c(O)c(C=Nc3cc(C)on3)c3ccccc3c2=O)c(C)c1`?
RecA splice inh: -11; YopH PTP inh: -20; Mtb bLac sens: 7; Arbovirus anti: -16; Mtb growth: 4%

Results for O=C(NC1CCCC1)c1cc(-c2ccccc2O)on1 ?
RecA splice inh: -0.6; Mtb bLac sens: 0

How did CCCOc1ccc(/C=c2\sc3nc(-c4ccco4)nn3c2=O)cc1OCC do in these assays?
RecA splice inh: -3.4; YopH PTP inh: -49; Mtb bLac sens: 97; Arbovirus anti: 3

Results for Cc1n[nH]c(=S)n(NC(=O)CC(=O)Nn2c(=S)[nH]nc(C)c2=O)c1=O ?
RecA splice inh: -13; Mtb bLac sens: 2; Arbovirus anti: -2; Mtb growth: 3%

How did Cc1cccc(OP(N)(N)=O)c1C do in these assays?
RecA splice inh: 0.7; Mtb bLac sens: 5; Arbovirus anti: 7; Mtb growth: 10%

Results for CC(C)Cn1c(SCc2nc3ccccc3c(=O)[nH]2)nc2ccccc2c1=O ?
RecA splice inh: 0.7; YopH PTP inh: -37; Mtb bLac sens: -1; Arbovirus anti: -17; Mtb growth: 2%

Results for [N-]=[N+]=CC(=O)C(c1ccccc1)(c1ccccc1)c1ccccc1 ?
RecA splice inh: 2.9; Mtb bLac sens: -12; Mtb growth: -7%

How did O=C(OCCCN=C1NS(=O)(=O)c2ccccc21)c1ccc([N+](=O)[O-])cc1 do in these assays?
RecA splice inh: -1.5; Mtb bLac sens: 5; Arbovirus anti: -8; Mtb growth: 0%

What do the screens show for `CS(=O)(=O)CCC(C(=O)OCC(=O)c1ccc(Cl)cc1)N1C(=O)c2ccccc2C1=O` (stereo not given)?
RecA splice inh: -0.2; YopH PTP inh: -18; Mtb bLac sens: 8; Arbovirus anti: -4

How did COc1ccc(C)cc1NC(=O)n1ncc2c(C)cccc21 do in these assays?
RecA splice inh: 2.4; Mtb bLac sens: 7
